# From PubChem BioAssay
# rRNA inh HTS – inhibits bacterial ribosomal RNA function over humanized ribosomes. GFP signal change (wild-type ribosome), % (no concentration beside the values). E. coli WT GFP vs humanized-ribosome RFP mutants, fluorescence, 24 h; hits give low values; DMSO median 0, no signal -100. actives 1.6% (n = 350,000);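 active means significant combined selectivity score with lowered wild-type GFP, culture density cut under 30%, mutant RFP and density less affected; inactive means any of these conditions unmet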; further: one replicate is shown; some compounds called inactive have numbers as strong as hits
# rRNA inh HTS OD600 – also measured in rRNA inh HTS; calls as there; OD600 change, %; measured here: OD600 growth;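 optical density of the mix in the first replicate; 0 = DMSO median and -100 = no signal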
# rRNA inh HTS RFP – recorded beside rRNA inh HTS, whose call it bears; RFP signal change, %; measured here: RFP humanized mutant strains;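 first replicate; 0 = DMSO median and -100 = no signal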
# An asterisk follows results filed as active; i = inactive; . = no result given. The list is partial; the hit share may differ from the screen's.
# Sequence of screens: rRNA inh HTS | rRNA inh HTS OD600 | rRNA inh HTS RFP
COc1ccc(S(=O)(=O)N(C)C[C@H]2Oc3c(NC(=O)c4nc5ccccc5s4)cccc3C(=O)N([C@@H](C)CO)C[C@H]2C)cc1
 : 1 | -1 | 0.6
CO[C@@H]1CN(C)C(=O)c2ccc(NC(C)=O)cc2OC[C@H](C)N(Cc2ccncc2)C[C@H]1C
 : 1 | 4 | -1.1
CC(=O)Nc1ccc2c(c1)C(=O)N(C)[C@@H]1CC[C@@H](CC(=O)NCc3ccc(Cl)cc3)O[C@@H]1CO2
 : 3 | 2 | -0.4
C[C@H](CO)N1C[C@H](C)[C@@H](CN(C)Cc2ccc(C(=O)O)cc2)Oc2c(NC(=O)Nc3cccc4ccccc34)cccc2C1=O
 : 1 | -15 | -1.1
COc1ccccc1S(=O)(=O)N[C@H]1CC[C@@H](CCNC(=O)C2CCC2)O[C@H]1CO
 : 0 | 4 | -1.2
C[C@H](CO)N1C[C@H](C)[C@@H](CN(C)Cc2ccc(-c3ccccc3)cc2)Oc2ccc(NC(=O)c3ccncc3)cc2C1=O
 : -31 | -69 | -1.2
C[C@H](CO)N1C[C@H](C)[C@@H](CN(C)CC2CCCCC2)OCCCC[C@H](C)Oc2ccc(NC(=O)Nc3ccc(C(F)(F)F)cc3)cc2C1=O
 : 0 | -2 | 16
COc1cccc(NC(=O)N(C)C[C@H]2Oc3ncc(/C=C/c4ccccc4)cc3C(=O)N([C@H](C)CO)C[C@H]2C)c1
 : -3 | 4 | 1.2
COc1ccc2c3c([nH]c2c1)[C@@H](CO)N(C(=O)NC(C)C)CC31CN(Cc2ccc(F)cc2)C1
 : 0 | -2 | -0.3
C[C@@H]1CN([C@@H](C)CO)C(=O)c2cc(N(C)C)ccc2O[C@@H]1CN(C)C(=O)Nc1ccc2c(c1)OCO2
 : 0 | 0 | -1.2
O=C(NCCc1ccncc1)[C@@H]1[C@@H](CO)[C@@H]2Cn3c(ccc(-c4ccccc4)c3=O)[C@@H]2N1C(=O)C1CC1
 : 2 | 12 | 0.1
COC(=O)C1=C(C)N(Cc2ccccc2C(F)(F)F)C(=NCc2ccc(C(F)(F)F)cc2)NC1c1cccc(Cl)c1 (stereo unspecified)
 : 12 | 23 | 5.4
C[C@@H]1CCCCO[C@@H](CN(C)S(=O)(=O)c2ccc(Cl)cc2)[C@H](C)CN([C@H](C)CO)C(=O)c2cc(NC(=O)Cc3ccccc3)ccc2O1
 : 11 | 6 | 3.2
O=C(NC(c1ccc(Cl)cc1)c1cnccn1)C1CCN(Cc2ccccc2)CC1 (stereo unspecified)
 : 8 | 5 | -7.2
C[C@H]1CCCCO[C@@H](CN(C)C)[C@@H](C)CN([C@@H](C)CO)C(=O)c2cc(NC(=O)Nc3ccccc3)ccc2O1
 : 6 | 4 | 0.4
O=C(C[C@@H]1CC[C@@H]2[C@H](COC[C@@H](O)CN2C(=O)c2ccccc2F)O1)NCc1ccc(Cl)c(Cl)c1
 : -6 | -12 | 17
O=C(C[C@@H]1CC[C@@H](NC(=O)C2CCOCC2)[C@H](CO)O1)Nc1ccccc1
 : 1 | 6 | -2.0
CC(C)(C)[S@@](=O)N1Cc2cc(C(=O)N[C@@H]3CCN(Cc4ccccc4)C3)nc(-c3cccc(-c4ccncc4)c3)c2[C@H]1CCO
 : -3 | -3 | 11
O=C(Nc1ccccc1OC(F)F)c1ccc(N2CCCC2=O)cc1
 : 5 | 2 | -1.6
O=C(Nc1cccc(Cl)c1)N1C[C@H]2[C@@H](c3ccccc31)[C@H](CO)N2Cc1ccncc1
 : -29* | -21* | 0.9*

> CN1CCN(C(=O)C[C@@H]2CC[C@H]3[C@@H](COc4ccc(NC(=O)c5cscn5)cc4C(=O)N3C)O2)CC1
  rRNA inh HTS = 2	rRNA inh HTS OD600 = -4	rRNA inh HTS RFP = -0.7

> CCCN1C[C@H](C)[C@@H](OC)CN(C)C(=O)c2cc(NC(=O)c3ccccc3F)ccc2OC[C@H]1C
  rRNA inh HTS = -1	rRNA inh HTS OD600 = 1	rRNA inh HTS RFP = -1.3

> COCC(=O)N1CC(=O)N2[C@H](CO)[C@@H](c3ccc(-c4ccccc4C)cc3)[C@H]2C1
  rRNA inh HTS = 0	rRNA inh HTS OD600 = 21	rRNA inh HTS RFP = -5.5

> COc1ccc(-c2ccc3c(c2)[C@@H]2[C@@H](CCN2S(=O)(=O)c2ccccc2C)[C@@H](CO)N3)cc1
  rRNA inh HTS = -2	rRNA inh HTS OD600 = 8	rRNA inh HTS RFP = 6.3

> COCCNC(=O)C[C@@H]1CC[C@@H]2[C@H](COC[C@H](O)CN2Cc2ccc(Cl)c(Cl)c2)O1
  rRNA inh HTS = i	rRNA inh HTS OD600 = .	rRNA inh HTS RFP = .

> C[C@@H]1CN([C@@H](C)CO)C(=O)Cc2cc(NS(C)(=O)=O)ccc2O[C@H]1CN(C)C(=O)NC1CCCCC1
  rRNA inh HTS = 2	rRNA inh HTS OD600 = 5	rRNA inh HTS RFP = -0.6

> O=C1NC[C@@H](CCCCN2C[C@H](Cc3ccc(O)cc3)N(CCc3ccc(O)cc3)C(=O)C2=O)N(CC2CCCCC2)C1=O
  rRNA inh HTS = -4	rRNA inh HTS OD600 = 5	rRNA inh HTS RFP = 5.8

> C[C@@H]1CN([C@H](C)CO)C(=O)c2cc(NC(=O)Cn3cnnn3)ccc2O[C@H]1CN(C)Cc1ccc(C(=O)O)cc1
  rRNA inh HTS = 5	rRNA inh HTS OD600 = 2	rRNA inh HTS RFP = 0.0

> CCCC#Cc1cnc2c(c1)C(=O)N([C@@H](C)CO)C[C@@H](C)[C@H](CN(C)C(=O)C1CCCCC1)O2
  rRNA inh HTS = 2	rRNA inh HTS OD600 = -5	rRNA inh HTS RFP = 2.4

> CCc1nc2ccc(C(=O)N3CCN(C(C)=O)CC3)cn2c1N(CC)C(C)=O
  rRNA inh HTS = 6	rRNA inh HTS OD600 = 19	rRNA inh HTS RFP = -2.9

> O=C(Nc1ccc2c(c1)OCO2)N[C@@H]1CC[C@H](CCNC(=O)C2CCCC2)O[C@@H]1CO
  rRNA inh HTS = 3	rRNA inh HTS OD600 = -2	rRNA inh HTS RFP = -1.9

> CCCC#Cc1ccc([C@@H]2[C@@H](CO)N(C(=O)C3CCCCC3)[C@H]2C#N)cc1
  rRNA inh HTS = -10	rRNA inh HTS OD600 = -25	rRNA inh HTS RFP = 15

> COc1ccc(CN2C(=O)COc3ccccc3C2c2nc3ccccc3[nH]2)cc1 (stereo unspecified)
  rRNA inh HTS = -2	rRNA inh HTS OD600 = -3	rRNA inh HTS RFP = 14

> CNc1cncc(-c2cccc(C(=O)NC3CC3)c2)n1
  rRNA inh HTS = -6	rRNA inh HTS OD600 = -4	rRNA inh HTS RFP = -1.9

> CO[C@H]1CN(C)C(=O)c2cc(NS(C)(=O)=O)ccc2OC[C@@H](C)N(CCC(F)(F)F)C[C@@H]1C
  rRNA inh HTS = -2	rRNA inh HTS OD600 = -4	rRNA inh HTS RFP = -2.5

> C[C@H]1CN([C@@H](C)CO)C(=O)c2cccc(NC(=O)Nc3ccc4c(c3)OCO4)c2O[C@H]1CN(C)C(=O)Nc1cccc2ccccc12
  rRNA inh HTS = -5	rRNA inh HTS OD600 = -3	rRNA inh HTS RFP = -0.8

> C[C@@H]1CN([C@@H](C)CO)C(=O)c2cccc(NC(=O)Nc3ccc(F)cc3)c2O[C@H]1CN(C)Cc1ccc(C(=O)O)cc1
  rRNA inh HTS = 0	rRNA inh HTS OD600 = 2	rRNA inh HTS RFP = -3.0

> CCC(=O)N1C[C@@H](C)[C@@H](OC)CN(C)C(=O)c2cc(NC(=O)C3CCCCC3)ccc2OC[C@H]1C
  rRNA inh HTS = -1	rRNA inh HTS OD600 = 0	rRNA inh HTS RFP = -0.5

> C/C=C/c1cnc2c(c1)C(=O)N([C@H](C)CO)C[C@H](C)[C@H](CN(C)C(=O)Nc1c(C)noc1C)O2
  rRNA inh HTS = -4	rRNA inh HTS OD600 = 8	rRNA inh HTS RFP = -1.1

> CC(=O)N(C)C[C@@H]1Oc2ncc(C#C[C@@H](C)O)cc2C(=O)N([C@H](C)CO)C[C@@H]1C
  rRNA inh HTS = -1	rRNA inh HTS OD600 = 3	rRNA inh HTS RFP = -2.8

> C[C@H](CO)N1C[C@H](C)[C@H](CN(C)C(=O)C2CCCCC2)Oc2ncc(-c3cccnc3)cc2C1=O
  rRNA inh HTS = -2	rRNA inh HTS OD600 = -2	rRNA inh HTS RFP = -3.4

> Cc1noc(C)c1NC(=O)N(C)C[C@H]1Oc2ncc(C#CC(C)C)cc2C(=O)N([C@H](C)CO)C[C@H]1C
  rRNA inh HTS = 10	rRNA inh HTS OD600 = 19	rRNA inh HTS RFP = -0.6

> CO[C@@H]1CN(C)C(=O)c2ccc(NC(=O)C3CCCCC3)cc2OC[C@H](C)N(C(=O)c2ccccc2)C[C@H]1C
  rRNA inh HTS = 0	rRNA inh HTS OD600 = -6	rRNA inh HTS RFP = -0.1

> C[C@@H]1CCCCO[C@H](CN(C)C(=O)C2CCCCC2)[C@@H](C)CN([C@H](C)CO)C(=O)c2cc(NS(C)(=O)=O)ccc2O1
  rRNA inh HTS = 3	rRNA inh HTS OD600 = 6	rRNA inh HTS RFP = -1.3

> C[C@@H]1CN([C@@H](C)CO)C(=O)Cc2cc(NC(=O)CCCCCC(=O)Nc3ccccc3N)ccc2O[C@H]1CN(C)Cc1ccc(Cl)c(Cl)c1
  rRNA inh HTS = -1	rRNA inh HTS OD600 = -1	rRNA inh HTS RFP = 4.1

> O=C(Cc1ccccn1)N[C@@H]1CC[C@H](CCn2cc(-c3cccnc3)nn2)O[C@@H]1CO
  rRNA inh HTS = 0	rRNA inh HTS OD600 = 4	rRNA inh HTS RFP = 0.1

# Ordered by number of heavy atoms (lowest first): 16 of the compounds above.
> CNc1cncc(-c2cccc(C(=O)NC3CC3)c2)n1
  rRNA inh HTS = -6	rRNA inh HTS OD600 = -4	rRNA inh HTS RFP = -1.9

> CCCC#Cc1ccc([C@@H]2[C@@H](CO)N(C(=O)C3CCCCC3)[C@H]2C#N)cc1
  rRNA inh HTS = -10	rRNA inh HTS OD600 = -25	rRNA inh HTS RFP = 15

> CCc1nc2ccc(C(=O)N3CCN(C(C)=O)CC3)cn2c1N(CC)C(C)=O
  rRNA inh HTS = 6	rRNA inh HTS OD600 = 19	rRNA inh HTS RFP = -2.9

> CC(=O)N(C)C[C@@H]1Oc2ncc(C#C[C@@H](C)O)cc2C(=O)N([C@H](C)CO)C[C@@H]1C
  rRNA inh HTS = -1	rRNA inh HTS OD600 = 3	rRNA inh HTS RFP = -2.8

> COc1ccc(CN2C(=O)COc3ccccc3C2c2nc3ccccc3[nH]2)cc1 (stereo unspecified)
  rRNA inh HTS = -2	rRNA inh HTS OD600 = -3	rRNA inh HTS RFP = 14

> O=C(Cc1ccccn1)N[C@@H]1CC[C@H](CCn2cc(-c3cccnc3)nn2)O[C@@H]1CO
  rRNA inh HTS = 0	rRNA inh HTS OD600 = 4	rRNA inh HTS RFP = 0.1

> CO[C@H]1CN(C)C(=O)c2cc(NS(C)(=O)=O)ccc2OC[C@@H](C)N(CCC(F)(F)F)C[C@@H]1C
  rRNA inh HTS = -2	rRNA inh HTS OD600 = -4	rRNA inh HTS RFP = -2.5

> CCCC#Cc1cnc2c(c1)C(=O)N([C@@H](C)CO)C[C@@H](C)[C@H](CN(C)C(=O)C1CCCCC1)O2
  rRNA inh HTS = 2	rRNA inh HTS OD600 = -5	rRNA inh HTS RFP = 2.4

> CCCN1C[C@H](C)[C@@H](OC)CN(C)C(=O)c2cc(NC(=O)c3ccccc3F)ccc2OC[C@H]1C
  rRNA inh HTS = -1	rRNA inh HTS OD600 = 1	rRNA inh HTS RFP = -1.3

> C[C@@H]1CN([C@@H](C)CO)C(=O)Cc2cc(NS(C)(=O)=O)ccc2O[C@H]1CN(C)C(=O)NC1CCCCC1
  rRNA inh HTS = 2	rRNA inh HTS OD600 = 5	rRNA inh HTS RFP = -0.6

> CO[C@@H]1CN(C)C(=O)c2ccc(NC(=O)C3CCCCC3)cc2OC[C@H](C)N(C(=O)c2ccccc2)C[C@H]1C
  rRNA inh HTS = 0	rRNA inh HTS OD600 = -6	rRNA inh HTS RFP = -0.1

> C[C@@H]1CN([C@H](C)CO)C(=O)c2cc(NC(=O)Cn3cnnn3)ccc2O[C@H]1CN(C)Cc1ccc(C(=O)O)cc1
  rRNA inh HTS = 5	rRNA inh HTS OD600 = 2	rRNA inh HTS RFP = 0.0

> C[C@@H]1CCCCO[C@H](CN(C)C(=O)C2CCCCC2)[C@@H](C)CN([C@H](C)CO)C(=O)c2cc(NS(C)(=O)=O)ccc2O1
  rRNA inh HTS = 3	rRNA inh HTS OD600 = 6	rRNA inh HTS RFP = -1.3

> C[C@@H]1CN([C@@H](C)CO)C(=O)c2cccc(NC(=O)Nc3ccc(F)cc3)c2O[C@H]1CN(C)Cc1ccc(C(=O)O)cc1
  rRNA inh HTS = 0	rRNA inh HTS OD600 = 2	rRNA inh HTS RFP = -3.0

> O=C1NC[C@@H](CCCCN2C[C@H](Cc3ccc(O)cc3)N(CCc3ccc(O)cc3)C(=O)C2=O)N(CC2CCCCC2)C1=O
  rRNA inh HTS = -4	rRNA inh HTS OD600 = 5	rRNA inh HTS RFP = 5.8

> C[C@@H]1CN([C@@H](C)CO)C(=O)Cc2cc(NC(=O)CCCCCC(=O)Nc3ccccc3N)ccc2O[C@H]1CN(C)Cc1ccc(Cl)c(Cl)c1
  rRNA inh HTS = -1	rRNA inh HTS OD600 = -1	rRNA inh HTS RFP = 4.1
